Screens deposited in PubChem by Fisher Drug Discovery Resource Center.
NPYLR7 ag: agonists of mosquito NPYLR7 receptor, primary screen, cell-based, Aedes aegypti, calcium fluorescence, mosquito biting behavior | HEK293T NPYLR7/Galpha15, GCaMP6s calcium fluorescence | Aedes aegypti neuropeptide Y-like receptor 7 (NPYLR7) | 0.15% of 270,000 active | activation, % at 10 µM; in the data active means activation above about 40%;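 further: 0% = vehicle and 100% = reference agonist at the receptor; some compounds past the cut are filed as inactive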
NPYLR7 ag max-min: also measured in NPYLR7 ag; calls as there; activation, %; measured here: Max-Min RFU normalised activation; some inactives read as strong as hits;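 span of the calcium signal over five minutes; 0% = vehicle and 100% = native peptide agonist; compound fluorescence can raise it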
Numbers without * were called inactive; & = joins results of further samples. Only part of the results is shown. The share of hits here may be higher or lower than overall.

SMILES,NPYLR7 ag,NPYLR7 ag max-min
COc1ccc(C2(O)CN(c3ccc(C)cc3)C3=[N+]2CCCCC3)cc1OC (configuration not stated),-5,-5
O=C1NCC(C(=O)NC2(c3ccc(Br)cc3)CC2)N1 (configuration not stated),4,5
CCOC(=O)C1=C(COC(=O)c2cc3c(s2)CCC3)NC(=O)NC1C (configuration not stated),-2,-3
COc1cc2c(cc1OC)C(c1cccc(Cl)c1)N(C(=O)c1ccc(Cl)nc1)CC2 (configuration not stated),-3,6
COc1cccc(OC)c1-c1ccc(-n2cncc2C(=O)NCCC2=CCCCC2)cc1,9,5
CSc1ccc(COc2coc(CN3CCCN(C(=O)c4cc(C)nn4C(C)(C)C)CC3)cc2=O)cc1,22,7
CN(C)C(=O)N1CCN(C(=O)NOCc2ccccc2)CC1,7,3
Cc1ccc(/C=C(/Cl)c2nc3cc(Cl)ccc3c(=O)[nH]2)s1,3,3
COc1cccc(C(=O)Nc2c(C)nc3scc(C)n3c2=O)c1,4,-2
CCOCCCn1c(SCc2ccccc2OC(C)=O)nc2cc(S(=O)(=O)N3CCCC(C)C3)ccc21 (configuration not stated),14,4
Cc1nnc(NCCc2ccc3c(c2)OCCO3)c(C#N)c1C,-3&6,-6&5
CN(C(=O)Cn1cc(C#N)c2ccccc21)c1ccccc1,18,8
c1coc(CNCCSCc2cccs2)c1,5&-4,5&-5
Cc1cc(C)n(CC(=O)NCc2cccnc2Oc2cccc(C(F)(F)F)c2)n1,1,2
CC1(C(=O)NS(=O)(=O)c2ccc(F)cc2F)CCN1C(=O)C/C=C/c1ccccc1 (configuration not stated),0,1
Cc1ccc(F)c(Oc2cc(N3CCN(c4ccccc4F)CC3)ncn2)c1,-7,-6
CC1=CC[C@@H]2CN(C(=O)c3cc(Cn4ccc5ccccc54)[nH]n3)C[C@@H]2C1,25,15
CCCCc1ncc(CN2CCCC(N(C)Cc3ccccc3)C2)[nH]1 (configuration not stated),17,5
CC(C)(C)C(=O)NCCc1cn(-c2ccccc2)c2ccccc12,11,6
Cc1cc(/C=C2/SC(=S)N(CC(=O)O)C2=O)c(C)n1-c1ccc([N+](=O)[O-])cc1,-6,1
CCCCNC(=O)C1CCC(C)N(C(=O)/C=C/c2csc(C)n2)C1 (configuration not stated),-11,-11
C1=CC2CC1CC2CN1CCN(Cc2c[nH]c3ccccc23)CC1 (configuration not stated),11,3
CN(C)c1ccc(NC(=O)C2CCCCN2C(=O)C2CCCO2)nc1 (configuration not stated),7,6
CC(C)c1ccc(-n2c(C3C4CCCCC43)n[nH]c2=S)cc1 (configuration not stated),-9,-13
Cn1ncc2c(=O)n(CC(=O)Nc3ccccc3Cl)cnc21,4,-1
CCCNC(=O)C(=O)NCCO,4,1
COc1cccc(CN(C(=O)c2ccc(-c3ccn[nH]3)cc2)C2CC2)c1,17,9
NC(=O)C1CCN(C(=O)c2csc(CSc3nnc(-c4cccnc4)n3-c3cccc(C(F)(F)F)c3)n2)CC1,12,18
Cc1cc(C)n(-c2cc(Cl)ccc2-c2cncc(C(=O)N3CCCC3)n2)n1,12,6
CC(C)(C)c1noc(COC(=O)c2sccc2C2CC2)n1,-6,364
Cc1ccc2c(c1)c(=O)c(C(=O)N1CCCC(O)(CN(C)C)CC1)cn2C (configuration not stated),9,4
CCCCOC(=O)Nc1ccc(S(=O)(=O)Nn2cnnc2)cc1,-2,-1
Clc1cc(CSc2nc3ccccc3o2)cc2c1OCCO2,10,9
CCOC(=O)C1(Cc2ccccc2)CCCN(Cc2cnc(N3CCOCC3)s2)C1 (configuration not stated),-1,-2
Cc1ccc(N=Nc2c(-c3ccc([N+](=O)[O-])cc3)[nH]n(-c3nc(-c4ccccc4)cs3)c2=O)c(C)c1,5,14
O=C(c1ccc(-c2ccccc2)cc1)C1CCCN(C(=O)CN2CCOC2=O)C1 (configuration not stated),9,5
CCCS(=O)(=O)Nc1ccc(N(C)C)c(CN(Cc2ccco2)C(=O)c2ccc(F)cc2)c1,-4,-3
Cc1cc2nc(SC3CCCC3)c3ccccc3n2n1,5,5
O=C(Cn1nc(-c2ccco2)ccc1=O)N1CCCc2ccccc21,3,1
COc1ccccc1CCC(=O)N1CCCC(N2CCN(c3ccc(F)cc3)CC2)C1 (configuration not stated),6&-1,7&0
Clc1ccc(CN2C3=NCCN3c3ccccc32)cc1,-2,-3
O=C1CC(c2ccc(F)cc2F)c2ncn(-c3cccnc3)c2N1 (configuration not stated),0,28
COCCCn1c(SC(C#N)C2CCCCC2)n[nH]c1=O (configuration not stated),2,0
Cc1nc2c(-c3ccccc3)c[nH]n2c(=O)c1C,-2,6
CC(=O)CSc1nnc(-c2ccccc2)c2sc(C)nc12,1,-1
COc1ccccc1C(=O)NC(C)c1nnc(SCc2cccc(C)c2)n1-c1ccc(C)cc1 (configuration not stated),5,12
CCCCc1ccc(N2CC(C)Cn3c2nc2c3c(=O)n(CC)c(=O)n2C)cc1 (configuration not stated),3,3
CCOC(C)c1nc(-c2ccc(NC(C)=O)cc2)cs1 (configuration not stated),-2&10,-3&5
FC(F)(F)C1(C(F)(F)F)C2C=CC(C2)N1c1nccs1 (configuration not stated),-5,-10
CC(C)(COc1ncc(Cl)cc1Cl)NCCN1CCOC1=O,11,11
COc1ccc(CCC(=O)NNc2cccc(Cl)c2)cc1Br,-4,-6
Cc1ccc(CN(CC(O)Cc2ccccc2)CC2CCCO2)c(C)c1 (configuration not stated),-1,11
CN(C(=O)CN(C)S(=O)(=O)c1ccc(Br)cc1Cl)C1CCCCC1,7,1
CCN(C(=O)c1cnn(C)c1)C(Cc1ccc(C)cc1)C1CC1 (configuration not stated),1,0
Cc1ccc(-c2ccc(CCC(=O)NCCc3cccc(Cl)c3)n2-c2ccc(CC#N)cc2)c(C)c1,4,0
COc1ccc2oc(=O)c(-c3nnc(Nc4cc(Cl)ccc4OC)s3)cc2c1,56*,59*
OC(c1ccc2c(c1)CN(Cc1cccn1-c1ncccn1)CCO2)c1c(F)cccc1Cl (configuration not stated),22,10
Cc1ccc(F)c(CNC2CCN(c3ccc(NC(=O)c4ccccc4F)cc3)CC2)c1F,15,-2
CCCCS(=O)(=O)N1CCN(CCCOC(c2ccc(Cl)cc2)c2ccc(Cl)cc2)CC1,4,-2
CNc1nn(CC(=O)NCc2ccccc2)c(N)c1-c1nc(-c2ccc(C)cc2)no1,1,-3

Four records drawn at random from the list so far:
SMILES,NPYLR7 ag,NPYLR7 ag max-min
Clc1cc(CSc2nc3ccccc3o2)cc2c1OCCO2,10,9
NC(=O)C1CCN(C(=O)c2csc(CSc3nnc(-c4cccnc4)n3-c3cccc(C(F)(F)F)c3)n2)CC1,12,18
CC1=CC[C@@H]2CN(C(=O)c3cc(Cn4ccc5ccccc54)[nH]n3)C[C@@H]2C1,25,15
CN(C(=O)Cn1cc(C#N)c2ccccc21)c1ccccc1,18,8

(more compounds)
SMILES,NPYLR7 ag,NPYLR7 ag max-min
Cc1cc(=O)n2c(-c3ccc(NC(=O)NCc4ccccc4)cc3)csc2n1,-2,-2
C=CCNC(=O)C(NC(=O)c1ccc2c(c1)OCO2)C1CCN(C(=O)c2cccc(F)c2)CC1 (configuration not stated),18,21
O=C(Nc1ccccc1)Oc1ccc2sc(=O)oc2c1,5,2
COC(=O)c1ccc(CSc2nnc(-c3ccccc3)c3sc(C)nc23)o1,3,1
O=C(NC1CCCc2c1cnn2-c1ccc(F)cc1F)c1ccc2c(c1)OCO2 (configuration not stated),6,1
O=C(c1cnccn1)N(Cc1ccco1)C1(C(=O)NC2CCCCC2)CCCCC1,-1,-4
CCC/C=C/c1nccc(N2CCCC(O)C2)n1 (configuration not stated),2,2
CS(=O)(=O)N1CCCC(C(=O)Nc2ncc(Cc3cccc(F)c3)s2)C1 (configuration not stated),13,6
O=C(CCN1CCCC(Oc2ccc(F)cc2)C1)Nc1nccs1 (configuration not stated),17,9
Cn1ccnc1CCNC(=O)C(C)(C)c1cccc(C(F)(F)F)c1,21,22
CC(C(=O)NC1CC1)N1CCN(C(=O)c2occc2-c2ccccc2)CC1 (configuration not stated),14,9
C=CCn1c(N2CCCCCC2)nc2c1c(=O)[nH]c(=O)n2C,-2,-4
COc1cc(=O)n2c(c1C(=O)Nc1cnc3n1CCCC3)CCNCC2,-1,-2
Cc1ccc(Cn2c(=O)n(C(C)C)c(=O)c3oc4ccccc4c32)cc1,9,12
Cc1sc2nc(C)n(N)c(=O)c2c1-c1ccc(Cl)cc1,-6,-6
Cc1nc(CN(Cc2cccnc2)C2CCN(C)CC2)co1,2,-4
COCCN1Cc2ccccc2N(CC(O)Cc2ccccc2)CCC1=O (configuration not stated),16,14
CC(NC(=S)NC1CCN(C)CC1)C12CC3CC(CC(C3)C1)C2 (configuration not stated),-13,-12
Cn1c(/C=C/c2ccccc2)cc[n+]1C,1,1
CCN(Cc1nccn1C)C(=O)c1ccc(NC[C@H]2C[C@H]3C=C[C@H]2C32CC2)nc1,4,1
Cc1cnccc1N1CCCN(C(=O)c2cccc(-n3cccn3)c2)CC1,3,-8
CC(C)CS(=O)(=O)CC(=O)Nc1ccnn1CCc1ccccc1,19,11
Cc1[nH]cnc1-c1nccn1CCN1CCCOC1=O,4,3
N#Cc1c(C(F)(F)F)cc(-c2cccs2)[nH]c1=S,11,6
CSc1ncc(CNCc2cccnc2N2CCCCCCC2)cn1,2,-2
Cc1ccc(S(=O)(=O)NCC(c2ccsc2)N2CCN(C)CC2)cc1C (configuration not stated),-2,-11
Cc1ccc(C)c(Cn2cnc3cc(C)c(C)cc32)c1,5,6
OCCN1CCN(CCCN2c3ccccc3Sc3ccc(C(F)(F)F)cc32)CC1,-4&-5&-4&-3,-5&-9&6&-4
Nc1nc(CN2CCN(c3ncccn3)CC2)cs1,3,24
COc1ccccc1C1CN(CC(=O)NC(c2ccco2)C(F)(F)F)Cc2ccccc2O1 (configuration not stated),26,8

Reformatted: results already given
Each structure is followed by: NPYLR7 ag, NPYLR7 ag max-min
Cn1ccnc1CCNC(=O)C(C)(C)c1cccc(C(F)(F)F)c1
  21, 22
CC(C(=O)NC1CC1)N1CCN(C(=O)c2occc2-c2ccccc2)CC1 (configuration not stated)
  14, 9

(more compounds)
SMILES,NPYLR7 ag,NPYLR7 ag max-min
CCOc1ccc(-c2ccnc(N3CCN(C(=O)CSc4ccccc4)CC3)n2)cc1,15,27
COc1ccccc1N1CCN(C(=O)c2nn(-c3ccccc3C)c(=O)cc2OC)CC1,5,3
C=c1oc(C)cc1=C1NN=C(CCC(=O)N2CCN(c3ccccc3OC)CC2)O1,20,6
COc1ccc(NC(=O)c2cc3ccccc3oc2=O)c(OC)c1,-5,-9
O=C(CN1CCN(Cc2nc3scc(-c4ccco4)c3c(=O)[nH]2)CC1)N1CCOCC1,9,9
CNC(=O)C1Cc2ccccc2CN1S(=O)(=O)c1ccc(C2CCCCC2)cc1 (configuration not stated),5,9
O=C(CCN1C(=O)c2ccccc2C1=O)Nc1nc2c(s1)CCC2,-5,6
Cc1ccc(S(=O)(=O)N2CCC(C(=O)NC(c3ccccc3)C3CC3)CC2)c(C)c1 (configuration not stated),-5,-7
CCCCOC(=O)Nc1sc2c(c1C(=O)OC)C(C(=O)OC)CC2 (configuration not stated),10,7
CCCNc1nc(SCC)nc2c1cnn2CCNC(=O)c1ccc(F)c(F)c1,-1,-2
Cc1cccc(N=C2NC(=O)C(Cc3ccc(Br)cc3)S2)n1 (configuration not stated),2,41
Cc1[nH]n(-c2ccccc2)c(=O)c1N=Nc1ccccc1O,-7,-11
CC(=O)N(CN1C(=O)c2ccccc2C1=O)c1ccc(C)c(Cl)c1,7,5
CC(=O)c1ccc(S(=O)(=O)Nc2ccc(C(=O)NC3CCCC3)cc2)cc1,1,-1
Clc1ccc(-c2csc(-c3cnccn3)n2)s1,-3,-5
COC(=O)c1cc2n(n1)CCN(Cc1cc3ccc(C)cc3[nH]c1=O)C2,16,0
Cc1ccc(S(=O)(=O)Cc2ccc([N+](=O)[O-])cc2)cc1,-5,-9
COc1cc(-c2cc(C(F)(F)F)n3ncc(C(=O)NCc4cccs4)c3n2)cc(OC)c1OC,12,11
Cc1cc(NCc2cc3ccc(F)cc3[nH]c2=O)nc(-c2cccnc2)n1,-4,-7
NC(=O)C1CCN(c2ncccc2C(=O)N2CCc3ccccc32)C1 (configuration not stated),-15&7,-16&-9
Cn1c(CSc2nc3ncnc(N)c3[nH]2)nc2ccccc21,7,2

Part of the list above in order of count of non-hydrogen atoms, falling:
SMILES,NPYLR7 ag,NPYLR7 ag max-min
O=C(CCN1C(=O)c2ccccc2C1=O)Nc1nc2c(s1)CCC2,-5,6
Cn1c(CSc2nc3ncnc(N)c3[nH]2)nc2ccccc21,7,2
Clc1ccc(-c2csc(-c3cnccn3)n2)s1,-3,-5
